VDR inhibitor – vitamin D3 receptor (human) inhibition; P11473; VDR-SRC2-3 peptide fluorescence polarization, 2 h; Potency, µM, inactives show max response, negative = inhibition, most hits filed as inhibitors; 400,000 tested, 0.93% active; AID 504847; active = well fitted inhibition curve with a large enough effect; inconclusive = small, poorly fitted or top-dose-only effect, or another doubt; inactive = no such curve, though single readings can be large or run the other way; note: series mostly up to about 120 µM
Target sequence (P11473 whole entry, looked up): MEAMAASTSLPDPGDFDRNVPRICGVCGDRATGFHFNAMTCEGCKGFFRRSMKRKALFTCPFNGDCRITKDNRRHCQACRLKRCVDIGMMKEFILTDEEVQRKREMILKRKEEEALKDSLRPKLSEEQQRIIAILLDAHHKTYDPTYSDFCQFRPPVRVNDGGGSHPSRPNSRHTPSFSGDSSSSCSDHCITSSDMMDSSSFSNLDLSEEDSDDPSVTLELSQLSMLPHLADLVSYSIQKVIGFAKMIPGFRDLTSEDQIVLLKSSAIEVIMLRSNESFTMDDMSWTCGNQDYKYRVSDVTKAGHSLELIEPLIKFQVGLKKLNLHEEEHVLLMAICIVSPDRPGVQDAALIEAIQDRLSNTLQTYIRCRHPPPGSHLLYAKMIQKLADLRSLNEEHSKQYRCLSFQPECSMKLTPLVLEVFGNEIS
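Measured by FP: displacement of SRC2-3 coactivator peptide from VDR by library compounds, following a two-hour ambient incubation.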
* hit, by the source's call; ? = inconclusive; & = joins results of further samples; [ ] = dose if it differs, or a comment. % is set by controls: 0 for no effect and ±100 for the full control effect; potency is the fitted concentration of half-maximal effect. The list is partial; count on the stated rates, not on these rows.

Structure	VDR inhibitor
Cc1cc(C)cc(-n2c(SC(C)C(=O)NCc3ccc4c(c3)OCO4)nc3ccccc3c2=O)c1 (stereo unspecified)	9%
Cc1oc(-c2ccc(C(=O)NCc3ccc(N(C)C)cc3)cc2)nc1COc1ccccc1	4%
O=C(COC(=O)C1CCC1)NCc1ccc(F)cc1	5%
COc1cc(C(=O)NC2Cc3ccccc3C2)ccc1OC1CCN(C(C)=O)CC1	-7%
COc1ccc(OC)c(C2CC(=O)Nc3ccc4ccccc4c32)c1 (stereo unspecified)	?
COc1ccc2[nH]cc(CCNC(=S)NCCc3ccccc3)c2c1	6%
Cc1ccc(-n2ncc3c2CC(C)(C)CC3NC(=O)CCc2ccncc2)cc1 (stereo unspecified)	-1%
COc1ccc(NC(=S)N(CCc2c(C)[nH]c3ccccc23)Cc2cccnc2)cc1	-13%
Cc1ccc(NC(=O)COc2cccc(/C=C3\SC(=S)N(CCC(=O)O)C3=O)c2)cc1Cl	?
O=[N+]([O-])c1cc(C(F)(F)F)cc([N+](=O)[O-])c1NCCN1CCNCC1	-4%
COCCN(CCOC)S(=O)(=O)c1ccc(C(=O)Nc2sc3c(c2C(=O)OC)CCN(C)C3)cc1	16%
Cc1ccc2c(c1)P(=O)(O)c1cc(C)ccc1O2	-10%
Cn1c(-c2cc3ccccc3oc2=O)nc2ccccc21	5%
CCCCNC(=O)CSc1nc2nc(C)c(Cc3ccccc3C)c(C)n2n1	-2%
CS(=O)(=O)N(CC(=O)NCC1CCCO1)c1cccc([N+](=O)[O-])c1 (stereo unspecified)	-9%
COc1ccc(CCNC(=O)C2CCCN(c3nc(C)cc(C)n3)C2)cc1 (stereo unspecified)	14%
CCc1ccc(/C=C/C(=O)C2C(=O)c3ccccc3C2=O)cc1	?
CCOC(=O)[C@H](N)/C=C(\C)CP(=O)(O)O	13%
CCC(CC)C(=O)N1CCc2cc(OC)c(OC)cc2C1COc1ccc(F)cc1 (stereo unspecified)	-4%
Cc1cc(-c2nc3ncccc3o2)ccc1NC(=O)COc1ccc(C(C)(C)C)cc1	10%
O=C(CSc1nnc(-c2cccnc2)n1Cc1ccco1)Nc1nc(-c2ccc(F)cc2)cs1	-7%
CCN1C(=O)N[C@@H](c2cccs2)C(C(C)=O)=C1C	-13%
C[C@H](CO)N1C[C@H](C)[C@@H](CN(C)Cc2ccc(C(=O)O)cc2)Oc2c(NC(=O)c3ccncc3)cccc2C1=O	3%
CCCc1nc2ccccc2c(=O)n1/N=C/c1c(C)[nH]n(-c2ccc(C)cc2)c1=O	0%
CCn1c(C)c(C)c2cc(C(=O)NCCN3CCCCCC3)ccc21	0%
COc1ccc(NC(=O)Nc2nc(C)cc(C)n2)c(OC)c1	12%
CCOc1ccc(/C=C2\SC(=S)N(CC(=O)Nc3ccccn3)C2=O)cc1	0%
O=C(NC(=S)N1CCCCCC1)C1CC1	-10%
CCN(c1ccccc1)S(=O)(=O)c1ccc2c(c1)N(C(C)=O)CCO2	-14%
CC12CCC(=O)N1C(C(=O)NNC(=O)COc1ccccc1Cl)CS2 (stereo unspecified)	-12%
CCc1ccc2c(CN(C)Cc3ccc(OC(F)F)c(OC)c3)cc(=O)oc2c1	-10%
CN1C(=O)C2(CCCCC2)C1c1ccccc1 (stereo unspecified)	-5%
Cc1cccc(C(=O)OCc2cc3ccccc3[nH]c2=O)c1	-1%
COc1ccccc1C(CNC(=O)C(CCSC)NS(=O)(=O)c1ccccc1F)N1CCCC1 (stereo unspecified)	9%
[N-]=C=C1C(=S)NC(=O)[C@H]([n+]2ccccc2)[C@H]1c1ccc(Cl)cc1	45µM*
NS(=O)(=O)c1ccc(CCNC(=O)c2nc(SCc3ccccc3F)ncc2Cl)cc1	-3%
O=C(NCC(c1cccnc1)N1CCOCC1)C(=O)Nc1ccc(Cl)cc1 (stereo unspecified)	1%
CC(=O)NC(c1ccccc1)c1nc2ccccc2[nH]1 (stereo unspecified)	9%
COc1ccc(C2=C/C(=C/c3cccnc3)C(=O)O2)cc1OC	5%
CC1CCC(NC(=O)c2cccc(S(=O)(=O)N3CCN(C)CC3)c2)CC1 (stereo unspecified)	-2%
Clc1ccc(-n2ncc3c(NCCCn4ccnc4)ncnc32)cc1	10%
Cc1cc(O)c(C(c2ccccc2)N2CCN(c3ccccc3F)CC2)c(=O)n1Cc1ccco1 (stereo unspecified)	-7%
O=C(CN(CC1CCCO1)C(=O)CNS(=O)(=O)c1ccc(Cl)cc1)NCCc1ccccc1 (stereo unspecified)	5%
COc1c[nH]n(C2CCCCC2)c(=O)c1=O	0%
CN(CCO)C(=O)c1c(NC(=O)c2ccccc2)sc2c1CCCC2	6%
O=C(Cn1nc(C(=O)O)c2ccccc2c1=O)Nc1ccc(Cl)c(S(=O)(=O)N2CCOCC2)c1	-8%
CCCCCCc1cc2cc(-c3nnc(-c4ccccc4)o3)c(=O)oc2cc1O	-18%
O=C(NC1=NCCS1)C1CCN(S(=O)(=O)c2ccccc2C(F)(F)F)CC1	-4%
CS(=O)(=O)N(CC(=O)Nc1ccccc1Br)Cc1ccccc1	-21%
CCOC(=O)Cc1c(C(=O)OCC)nnc2c(-c3ccccc3)c(C)nn12	6%
CC(C)CN(CC(C)C)C(=O)C1CCCN(S(=O)(=O)c2ccc3c(c2)oc(=O)n3C)C1 (stereo unspecified)	-15%
CCOC(=O)c1ccc2nc(NC(NC(C)=O)(C(=O)OC)C(F)(F)F)sc2c1 (stereo unspecified)	4%
CCOC(=O)N1CCN(CC(=O)Nc2ccc(C)c(Br)c2)CC1	-11%
CCC(C(=O)NC1CCCC1)N(C(=O)Cn1nnc(-c2ccc(C)o2)n1)c1ccc(OC)cc1 (stereo unspecified)	24%
Cn1cccc1C(=O)N1CCC2(CC1)CN(C(=O)Nc1cccc(F)c1)C2	-11%
C[C@@]12CC[C@@H]3c4ccc(O)cc4C[C@H](CCCCCCCCCS(=O)CCCC(F)(F)C(F)(F)F)[C@H]3[C@@H]1CC[C@@H]2O (stereo partly specified)	1%
CCN(CC)C(=O)C1CCC(CNS(=O)(=O)c2cccc3nsnc23)CC1 (stereo unspecified)	1%
COc1ccc(CNC(=O)c2cccc(N3CCCS3(=O)=O)c2)cc1OC	-16%
CSc1ccc(C2C(C#N)=C(N)N(c3ccccc3)C3=C2C(=O)CCC3)cc1 (stereo unspecified)	1%
Cn1c(=O)[nH]c(=O)c2c1nc(N1CCNCC1)n2Cc1cccc2ccccc12	5%

Structural class: those above containing a nitro group on carbon (2)
Structure	VDR inhibitor
O=[N+]([O-])c1cc(C(F)(F)F)cc([N+](=O)[O-])c1NCCN1CCNCC1	-4%
CS(=O)(=O)N(CC(=O)NCC1CCCO1)c1cccc([N+](=O)[O-])c1 (stereo unspecified)	-9%

Additional records:
Structure	VDR inhibitor
CCN1CCN(C(=O)Cn2nc(C)n3c(cc4c(OC)cccc43)c2=O)CC1	-10%
COC(=O)c1ccc(CSc2ncnc3ccccc23)o1	2%
CCCCNC(=O)CN1CCC2(O)CCCCC2C1c1ccccc1OC (stereo unspecified)	-1%
N#Cc1ccsc1NC(=O)CCN1C(=O)C2CCCCC2C1=O (stereo unspecified)	21%
Cc1noc(C)c1C(=O)Nc1nc2ccc(F)cc2s1	-18%
CCCCOc1ccc(Cc2c(COCC)[nH]c(=S)[nH]c2=O)cc1	7%
COc1ccc(S(=O)(=O)N2CC(=O)Nc3ccccc32)cc1F	8%
COC(=O)c1sc2ccccc2c1N	-28%
Cc1cc(=O)nc2c3ccccc3n(C(C)C(=O)NCCN3CCOCC3)n12 (stereo unspecified)	1%
CCCc1cc(=O)[nH]c(SCC(=O)N2CCN(S(=O)(=O)c3ccc(C)cc3)C2)n1	-13%
COc1ccccc1NC(=O)c1nn(-c2ccccc2)ccc1=O	-6%
COC(=O)CSc1snnc1-c1ccc(Cl)cc1Cl	3%

Molecules shown so far containing bromine:
Structure	VDR inhibitor
CS(=O)(=O)N(CC(=O)Nc1ccccc1Br)Cc1ccccc1	-21%
CCOC(=O)N1CCN(CC(=O)Nc2ccc(C)c(Br)c2)CC1	-11%

Carrying on.
Structure	VDR inhibitor
Cc1cc(CNC(=O)COc2ccc(F)cc2Cl)cc(C)c1O	12%
CCCCN1CC(COC)Oc2cccc(F)c2S1(=O)=O (stereo unspecified)	-11%
CCCCC[C@H](O)/C=C/[C@@H]1[C@@H](CC(=O)CCC(=O)O)[C@@H](O)C[C@H]1O	9%
NC(=O)c1cc(N)ccc1N1CCCC1	47%[activator]
Cc1ccccc1CN1C[C@@H]2C[C@@H](c3ccc4nsnc4c3)N3CCC[C@@]23C1=O	-15%
COc1ccc(CCN2C(=O)N(c3ccc(F)cc3)C(=O)C2CC(=O)Nc2ccccc2)cc1OC (stereo unspecified)	-24%
O=C(CCn1c(=O)c2cccn2c2cccnc21)NCc1ccccc1Cl	-3%
CCOc1ccc(NC(=O)CN(C)C(=O)c2cc3c(s2)CCCCC3)cc1OCC	1%
CCC(C)(C)C1CCC2(CC1)NC(=O)N(CC(=O)N(C)CC(=O)Nc1ccccc1C(F)(F)F)C2=O (stereo unspecified)	-5%
O=C(c1ccc([N+](=O)[O-])o1)N(Cc1nnc(-c2ccccc2Cl)o1)C1CC1	-3%
Cc1cccc(CNS(=O)(=O)c2csc(C(N)=O)c2)c1	-8%&-1%
COc1ccc(CCNC(=O)C2CCCN(Cc3nc(-c4cccc(Cl)c4)oc3C)C2)cc1OC (stereo unspecified)	14%
O=C(N/N=C/C1CCCCC1)c1ccccc1-n1cccc1	9%
Cc1ccc(C(Nc2ccccn2)c2ccc3cccnc3c2O)cc1 (stereo unspecified)	?
Cc1ccccc1OCC(=O)OCC(=O)NCc1ccco1	-9%
COc1ccc(SCCN2CCN(CC(C)C)CCC2=O)cc1	-17%&-9%
O=C1Nc2ccc(Br)cc2C1(O)c1ccccc1 (stereo unspecified)	-15%
COCCCNCCCOc1ccc(C(C)(C)c2ccccc2)cc1	-10%
CCS(=O)(=O)c1ccc2oc(Nc3ccc(C(C)(C)C)cc3)nc2c1	-5%
Cc1cc(NC2C3CC4CC(C3)CC2C4)n2ncnc2n1 (stereo unspecified)	-10%
CC(=O)n1c(C=Nc2ccc(Cl)cc2)c(O)c2ccccc21	7%
O=C(O)C(c1ccccc1)N1C(=O)c2cccc3cccc(c23)C1=O (stereo unspecified)	-14%
COc1cccc(C(C)NC(=S)NCc2ccc(F)cc2)c1 (stereo unspecified)	29%
Cn1c(=O)[nH]c(=O)c2c1nc(SCCO)n2Cc1ccccc1Cl	-8%

Part of the list above, with the structure last:
VDR inhibitor | smiles
-9% | Cc1ccccc1OCC(=O)OCC(=O)NCc1ccco1
9% | O=C(N/N=C/C1CCCCC1)c1ccccc1-n1cccc1
-14% | O=C(O)C(c1ccccc1)N1C(=O)c2cccc3cccc(c23)C1=O (stereo unspecified)
-15% | O=C1Nc2ccc(Br)cc2C1(O)c1ccccc1 (stereo unspecified)
7% | CC(=O)n1c(C=Nc2ccc(Cl)cc2)c(O)c2ccccc21

The list goes on:
Structure	VDR inhibitor
O=C1CN(C(=O)COC(=O)CCNS(=O)(=O)c2ccc(Cl)cc2)c2ccccc2N1	2%
Cc1onc(-c2c(F)cccc2Cl)c1C(=O)N[C@H]1C(=O)N2[C@H]1SC(C)(C)[C@H]2C(=O)O	-1%
CC(=O)N1CCc2cc(S(=O)(=O)NC(Cc3ccccc3)C(=O)NCc3ccccc3)ccc21 (stereo unspecified)	-9%
CCN(C(=O)c1cc2cc3ccc(C)cc3nc2o1)c1ccc(OC)cc1	-2%
O=C(CSCc1ccc(F)cc1)Nc1ccc(F)cc1	-22%
O=C(CCc1nnc(CCCc2ccccc2)o1)NCC(F)(F)F	-31%
COc1ccc(-c2cc(C(=O)Nc3nc4ccccc4s3)c3ccccc3n2)cc1OC	-21%
O=C(CS(=O)(=O)c1cn(Cc2ccc(F)cc2)c2ccccc12)N1CCCCC1	-7%
Cc1cc2c(N=NC(=O)C3CC3c3ccccc3)c(O)[nH]c2cc1Br (stereo unspecified)	-16%
CCc1ccccc1NC(=O)CN1CCN(C(=O)CCC(=O)N2CCC(c3ccccc3)=N2)CC1	-1%
CCCONC(=O)Nc1ccccc1[N+](=O)[O-]	-10%
COc1ccccc1-c1cncnc1N(C)Cc1ccco1	?
COc1ccccc1CCC(=O)NNC(=O)c1ccc(Br)cc1	-8%
CC(C)c1ccc(NC(=O)CSc2nc3ccccc3nc2N2CCCC2)cc1	-15%
O=C(Nc1ccnn1C1CCN(C(=O)c2cnsn2)CC1)c1cccc(F)c1	-2%
CCN(CC)S(=O)(=O)c1ccc(C(=O)NCCN(C)C)cc1	14%
Cc1noc(C)c1C(=O)Nc1nnc(-c2ccccc2)s1	1%
Cc1ccc(NC(=O)Cn2ccn(-c3ccc(F)c(F)c3)c(=O)c2=O)cc1C	7%
O=C(c1ccc(S(=O)(=O)N2CCOCC2)cc1)N1CCN(c2ccccc2F)CC1	20%
O=S(=O)(Nc1ccccc1)c1ccc(NS(=O)(=O)c2cccs2)cc1	-24%
Fc1ccccc1C1c2[nH]c3ccccc3c2CCN1Cc1ccoc1 (stereo unspecified)	3%
CCCCOc1ccc(C(=O)NCC(=O)OC2CCOC2=O)cc1 (stereo unspecified)	-11%
O=C1C2Sc3[nH]c(=O)sc3C(c3cc([N+](=O)[O-])ccc3O)C2C(=O)N1c1ccccc1 (stereo unspecified)	-11%

Source: PubChem BioAssay
